H5N1 antiviral – antiviral screen in MDCK cells, H5N1 avian flu; cytopathic effect, luminescence, 72 h; active compounds read high; no value below 0 was filed and about half of the inactive calls have no number; reference of the scale not given here; inhibition, % at 50 µM; 96,000 tested, 0.07% active; AID 740; in the data active means inhibition above about 25%
The depositor's hits bear a star; i = inactive. Not all compounds are listed; count on the stated rates, not on these rows.

The first three compounds, ahead of the listing:
SMILES | H5N1 antiviral
CCOC(=O)C(CSCc1ccccc1)NC(=O)OC(C)(C)C (configuration not stated) | 0.4
O=S(=O)(N1CCCCC1)n1nnc2ccccc21 | 0.1
Cn1nccc1/C=C(/C#N)S(=O)(=O)c1ccccc1 | 1.0

Main list, previewed entries included:
SMILES | H5N1 antiviral
CCOC(=O)C(CSCc1ccccc1)NC(=O)OC(C)(C)C (configuration not stated) | 0.4
O=S(=O)(N1CCCCC1)n1nnc2ccccc21 | 0.1
Cn1nccc1/C=C(/C#N)S(=O)(=O)c1ccccc1 | 1.0
CCc1cc2cccc(C)c2nc1SCC(=O)N1CCN(C(=O)c2ccco2)CC1 | i
CCCCOC(=O)Nc1ccc(S(=O)(=O)Nn2cnnc2)cc1 | 1.5
CN(Cc1cccc(F)c1)C(=O)c1ccc(S(=O)(=O)C(F)F)cc1 | 1.0
Cc1ccc(C(C(=O)NCc2ccco2)N(C(=O)Cn2nnc3ccccc32)c2ccccc2)o1 (configuration not stated) | i
CCOC(=O)CSc1nc2ccsc2c(=O)n1C1CCN(C(=O)OCC)CC1 | 0.2
Nc1cc(=O)[nH]c(SCc2nnc(-c3ccccc3)o2)n1 | i
Cc1ccc(S(=O)(=O)/C(C#N)=C/c2c(N3CCN(C)CC3)nc3c(C)cccn3c2=O)cc1 | 3.1
Cc1ccc(C(=O)NNC(=O)CSc2nnc3c(n2)[nH]c2ccc(C)cc23)cc1 | i
CCn1c(COc2ccc(=O)n(-c3ccccc3)n2)nnc1SCc1ccc(OC)cc1 | i
COc1cc2[nH]c(=O)n(-c3ccccc3)c(=O)c2cc1OC | i
O=C(CN(CC1CCCO1)C(=O)CCC(=O)Nc1ccccn1)NCC1CCCO1 (configuration not stated) | i
CC1CCCN(C(C(=O)Nc2ccc3c(c2)OCO3)c2ccccc2)C1 (configuration not stated) | 1.1
CC(C)CCC1(CN2CCCC2=O)C(=O)NC(=O)NC1=O | i
O=C(Nc1ccccc1)OCCOc1ccccc1 | 0.2
CCCCCn1c(=N)n(CC(O)COc2ccccc2OC)c2ccccc21 (configuration not stated) | i
COC(=O)C1=C(C)NC(=O)/C1=C\c1cc(C)n(-c2c(C)cccc2C)c1C | 12
COc1cc2ccccc2cc1C(=O)Nc1ccccc1N1CCN(S(C)(=O)=O)CC1 | 5.5
CC(C)SCCCCOc1ccc2ccccc2c1 | i
Cc1ccc(Cn2c(CN3CCOCC3)nc3c2c(=O)n(C)c(=O)n3C)cc1 | 0.2
O=C(O)Cn1c(-c2cscn2)nc2ccccc21 | 1.0
COc1cc(C)c(S(=O)(=O)N2CCOCC2)cc1C(C)C | 0.5
O=C(O)CSc1ncnc2c1oc1ccccc12 | i
COc1ccc(-c2nnc(SC(C)C(=O)Nc3cccc(Cl)c3)o2)cc1 (configuration not stated) | i
COCCCNS(=O)(=O)c1ccccc1 | 0.4
CC1(C)CC(=O)C2=C(C1)NC(Nc1nc3ccccc3o1)=NC21CCCCC1 | 0.5
O=C1CCC/C1=c1\s/c(=C\c2cccnc2)c(=O)n1-c1ccccc1 | i
CC(NC(=O)c1nn(C)c(=O)c2ccccc12)c1ccccc1 (configuration not stated) | 2.8
CS(=O)(=O)N(CC(=O)N1CCN(c2ccc(F)cc2)CC1)c1cccc(Cl)c1 | 0.2
CCOc1ccc2nc(NC(=O)c3ccc(OC)c(S(=O)(=O)N4CCOCC4)c3)sc2c1 | i
CC(=O)c1c(C)[nH]c(C(=O)OC2CCCCC2=O)c1C (configuration not stated) | 0.2
CCCN(CC(=O)Nc1c(C)cccc1CC)C(=O)SCC | i
Cc1cc(Cn2ccnc2)c(C)cc1Cn1ccnc1 | 0.5
O=C(C1CCCN(S(=O)(=O)c2cnc[nH]2)C1)N(CCc1ccccc1)Cc1ccccc1 (configuration not stated) | 1.4
O=C(CCCC(=O)OCC(F)(F)C(F)F)Nc1nccs1 | i
CCn1c(CNC(=O)COc2ccc(C(C)C)cc2)nnc1SCC(=O)Nc1cc(F)ccc1C | 1.2
Cc1cc(SCc2cc(=O)[nH]c3ccccc23)nc2ccccc12 | i
CC(C)CC(NC(=O)OC(C)(C)C)C(=O)NC(C(=O)N1CCCC1C(N)=O)C(C)C (configuration not stated) | i
CCOC(=O)c1ccc(NC(=O)COc2cc(=O)n(CC)c3ccccc23)cc1 | i
O=C1C2CC=C(Cl)CC2C(=O)N1CN(Cc1ccco1)CN1C(=O)C2CC=C(Cl)CC2C1=O (configuration not stated) | 0.3
Cc1cc(C)n(CCc2nc3c4ccccc4n(CC#N)c(=O)n3n2)n1 | i
Cc1c(NC(=O)C2CCCNC2=O)c(=O)n(-c2ccccc2)n1C (configuration not stated) | 0.6
NC(=O)c1cc(N2C(=O)C=CC2=O)ccc1Cl | 2.0
O=C(CN1CCC(O)(c2ccc(F)cc2)CC1)NCc1ccc(F)cc1 | i
Cc1cc2c(cc1C)N(CC(=O)N1CCCC1)C(=O)CC(c1ccccc1)=N2 | 0.7
CCOC(=O)C1=C(Cn2cnc3ccccc32)NC(=O)NC1c1ccc(Cl)cc1 (configuration not stated) | 1.9
CC(=O)Nc1ccc(C(=O)NC2CCCC2)cc1 | 0.0
CCn1nnc(-c2ccccc2NS(=O)(=O)c2ccc(S(=O)(=O)N(C)C3CCCCC3)cc2)n1 | 0.3
CN1CCN(CC(=O)O)CC1 | i
CC1CC(C)(C)N(C(=O)CSc2ccc(-c3ccc(F)cc3)nn2)c2ccccc21 (configuration not stated) | 14
Cn1c(-c2ccccc2)c(CCO)c2ccccc21 | i
C/C=C/c1ccccc1OCc1ccc(C(=O)OC)o1 | 0.5
c1coc(-c2nc3nc4ccccc4n3nc2-c2ccco2)c1 | 0.2
N#Cc1ccccc1CN1C(=O)S/C(=C/c2cccn2-c2ccc(C(=O)O)cc2)C1=O | i
CCOc1cccc(NC(=O)C2CC(=O)NC(=Nc3ccccc3)S2)c1 (configuration not stated) | i
O=C(Cn1cc([N+](=O)[O-])cn1)Nc1ccn(Cc2c(F)c(F)c(F)c(F)c2F)n1 | 0.3
CN1CCN(/C(=N\S(=O)(=O)c2ccc(F)cc2)c2ccccc2)CC1 | 1.5
COc1ccc(C(C(=O)OC(C)CN(C)C)c2ccccc2)cc1 (configuration not stated) | i

(more compounds)
SMILES | H5N1 antiviral
COc1ccc(NC(=O)CC2Oc3ccccc3NC2=O)cc1 (configuration not stated) | i
Cc1nc2ccc(S(=O)(=O)NC(C(=O)N3CCCC3)C(C)C)cc2s1 (configuration not stated) | 0.5
Cc1ccc2nc(NC(=O)c3ccc(Cn4cc(Cl)cn4)o3)sc2c1 | i
CSc1nnc(-c2ccccc2N=Cc2c(C)[nH]n(-c3ccccc3)c2=O)c(=O)[nH]1 | 0.1
CCOc1cccc(-c2nnc3sc(COc4ccc(Cl)cc4)nn23)c1 | i
N#Cc1cn(-c2ccccc2)nc1C(=O)c1ccccc1 | i
COc1ccc(NC(=O)c2ccco2)c(OC)c1 | 0.4
COC(=O)CC1COc2ccccc2N1C(=O)c1ccc(Cl)cc1 (configuration not stated) | 0.1
CN(C)S(=O)(=O)c1ccc(Oc2ccccc2)cc1 | i
C=CCNc1nc(Nc2ccc(OC)cc2)nc(OC)n1 | i
Cc1ccc(F)cc1NC(=O)Cc1nn(C)c(=O)c2ccccc12 | 0.2
O=C(COC(=O)c1ccc2c(c1)OCCO2)Nc1cc(Cl)ccc1Cl | i
O=C(CCCOc1ccccc1)N1CCN(S(=O)(=O)c2cccs2)CC1 | 0.7
CCOc1ccccc1NC(=S)N1C2CCC1CC(NC(=O)NC13CC4CC(CC(C4)C1)C3)C2 (configuration not stated) | i
Cc1cccc(NC(=O)Nc2cccc(C)n2)n1 | 0.1
CC1(C)Cc2nc3oc4c(=S)nc[nH]c4c3cc2CO1 | 1.1
CCc1ccc2[nH]c(=O)c(C(c3nnnn3Cc3ccco3)N3CCC(C)CC3)cc2c1 (configuration not stated) | i
COc1cccc(CNCCNC(=O)c2nonc2N)c1 | 0.1
CCC(CC)C(=O)NC1CCSC1=O (configuration not stated) | i
N#CCCN(Cc1cccnc1)C(=O)Nc1ccccc1 | i
C=CCN(CC(=O)NCc1ccc(OC)cc1)C(=O)c1csnn1 | 1.0
COc1ccc(S(=O)(=O)N(C)c2ccc(C(=O)N3CCOCC3)cc2)cc1 | 0.9
Cn1c(SCc2ccccn2)nnc1-c1ccncc1 | i
CSc1cccc(NC(=O)CN(C)S(=O)(=O)c2ccc(C)cc2)c1 | 0.2
Oc1[nH]c2ccccc2c1/C=N/c1nccs1 | i
Clc1cc(Br)ccc1OCCn1ccnc1 | i
COc1ccc(C(=O)NCc2nnc(SCC(=O)Nc3cccc(C(F)(F)F)c3)o2)cc1OC | i
Cc1onc(-c2ccccc2Cl)c1C(=O)OCC(=O)N1CCCc2ccccc21 | i
CCn1c(-c2ccccc2Cl)nn(CC(=O)Nc2ccccc2C)c1=S | 0.1
CN1CCN(C(c2ccc(F)cc2)c2nnnn2Cc2cccs2)CC1 (configuration not stated) | i
CC(C)N(O)C(=O)NC(C)(C)C | 0.7
CC1CCN(CCNC(=O)C2CCCN(S(=O)(=O)c3cccc4nonc34)C2)CC1 (configuration not stated) | 0.1
CCOc1ccc(NC(=O)c2ccccc2O)cc1 | 0.5
Cc1ccc(C)c(NC(=O)CSc2nnc(CCNC(=O)OC(C)(C)C)o2)c1 | 0.3
O=C(Nc1cccc(-c2csc(-c3ccccc3)n2)c1)c1cccs1 | i
Cn1cc(C(=O)c2ccc(Cl)cc2Cl)cc1C(=O)N/N=C(\N)COc1ccc(F)cc1 | i
O=C(c1ccccc1)c1cccc(NC(=O)c2ccc(Br)o2)c1 | i
O=C1[C@H]2[C@@H](C(=O)N1c1cccc3ccccc13)C1(C(=O)c3ccccc3C1=O)N1CCC[C@@H]21 | i
Cc1cc2cc(CNC(=O)c3ccc(S(=O)(=O)N4CCCCC4)cc3)ccc2n1C | i
N#C/C(=C\c1cc([N+](=O)[O-])c(N2CCOCC2)cc1N1CCOCC1)c1nc2ccccc2[nH]1 | 2.5
CCSc1nnc(NC(=O)C2C3C=CC(C3)C2C(=O)O)s1 (configuration not stated) | 0.6
O=C1/C(=C\c2ccccn2)SC(=S)N1Nc1ncc(C(F)(F)F)cc1Cl | 0.0
CN1CCN(CC(O)c2ccccc2)CC1 (configuration not stated) | i
CC1CCCC(NC(=O)CCn2c(=O)oc3ccccc32)C1C (configuration not stated) | 0.4
COc1cccc(C2C(C#N)=C(N)Oc3cc(C)oc(=O)c32)c1OC (configuration not stated) | 0.5

Taken from above.
Value of COc1ccc(S(=O)(=O)N(C)c2ccc(C(=O)N3CCOCC3)cc2)cc1 under H5N1 antiviral: 0.9
Value of O=C(O)Cn1c(-c2cscn2)nc2ccccc21 under H5N1 antiviral: 1.0
Value of CC1CCCN(C(C(=O)Nc2ccc3c(c2)OCO3)c2ccccc2)C1 (configuration not stated) under H5N1 antiviral: 1.1

Remaining list, next part.
SMILES | H5N1 antiviral
O=C(Nc1cc(N2CCOCC2)ncn1)c1ccccc1 | 0.8
COc1ccc(NC(=O)NCCCN2CCCCC2C)cc1 (configuration not stated) | i
COc1ccc(C2(C(F)(F)F)NC(=O)N(C)C(=O)N2C)cc1 (configuration not stated) | 1.3
CCC1(C)Cc2ccccc2-c2nc(NCCCO)n(-c3ccccc3)c(=O)c21 (configuration not stated) | i
Cc1ccc(-c2csc3ncnc(OCC(=O)NC(=O)NCc4ccco4)c23)cc1 | i
O=S(=O)(O/N=C1\CCCc2ccccc21)c1ccccc1 | i
Cc1ccc(/C=[N+](/[O-])C2SC(=S)N(C)C2(C)C)cc1 (configuration not stated) | 0.1
Cc1nc2ccccc2n1C(=O)c1cc(-c2ccc(Br)cc2)nc2ccccc12 | 0.7
COc1ccc(N(CC(=O)Nc2ccc3c(c2)OCCO3)S(=O)(=O)c2c(C)nn(C)c2C)cc1 | 1.7
COC(=O)C(C)Sc1nc2c(cnn2-c2ccccc2)c(=O)[nH]1 (configuration not stated) | 1.9
Cc1ccc(C2CC2C(=O)NN)cc1 (configuration not stated) | i
Cc1nc(SCC(=O)NCc2ccco2)c2c(C)c(C)sc2n1 | 1.7
Nc1cc(N)nc(SCc2ccccc2)n1 | i
CCOC(=O)c1sc(NC(=O)CSc2nc3c(c(-c4ccc(OC)cc4)c2C#N)CCCC3)c(C#N)c1C | 1.1
CCOC(=O)c1[nH]c2ccc(Br)cc2c1NC(=O)CCN1CCC(C(=O)OCC)CC1 | i

Reprinted at random: four entries already listed
SMILES | H5N1 antiviral
COc1ccc(NC(=O)NCCCN2CCCCC2C)cc1 (configuration not stated) | i
COC(=O)C(C)Sc1nc2c(cnn2-c2ccccc2)c(=O)[nH]1 (configuration not stated) | 1.9
CCOC(=O)c1[nH]c2ccc(Br)cc2c1NC(=O)CCN1CCC(C(=O)OCC)CC1 | i
COc1ccc(C2(C(F)(F)F)NC(=O)N(C)C(=O)N2C)cc1 (configuration not stated) | 1.3

Further records.
SMILES | H5N1 antiviral
COc1ccccc1NC(=O)Nn1cnnc1 | i
CC(C)(C)C(=O)Nc1ccccc1C(=O)Nc1cccnc1 | i
CCCn1cc(NC(=O)c2cc3n(n2)C(C(F)(F)F)CC(c2ccccc2)N3)cn1 (configuration not stated) | i
Cc1onc(-c2c(F)cccc2Cl)c1C(=O)N1CCc2ccccc2C1 | 0.1
CC(C)Sc1nc2ccccc2n1CC(N)=O | 0.5

Part of the list above, set out differently.
smiles,H5N1 antiviral
CCCn1cc(NC(=O)c2cc3n(n2)C(C(F)(F)F)CC(c2ccccc2)N3)cn1 (configuration not stated),i
Cc1onc(-c2c(F)cccc2Cl)c1C(=O)N1CCc2ccccc2C1,0.1
CC(C)Sc1nc2ccccc2n1CC(N)=O,0.5

Compound activity: PubChem, SRMLSC
